Assay outcomes from PubChem BioAssay.
Beta2AR agonist – agonists of human beta-2 adrenergic receptor inducing internalization | P07550 | Am2.2-beta2AR cells, FAP receptor internalization, flow cytometry; reference of the scale not given here | response, % (test concentration not listed) | 0.43% of 340,000 active | AID 504454;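 active = response above a set limit, near 3 SD of response in nonfluorescent compounds, cut at about 42% in these data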;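 also: stock transfer was 100 nL into about 11 µL; a reference agonist was the positive control; negative values mostly stem from fluorescent compounds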
Target sequence (P07550 whole entry, looked up): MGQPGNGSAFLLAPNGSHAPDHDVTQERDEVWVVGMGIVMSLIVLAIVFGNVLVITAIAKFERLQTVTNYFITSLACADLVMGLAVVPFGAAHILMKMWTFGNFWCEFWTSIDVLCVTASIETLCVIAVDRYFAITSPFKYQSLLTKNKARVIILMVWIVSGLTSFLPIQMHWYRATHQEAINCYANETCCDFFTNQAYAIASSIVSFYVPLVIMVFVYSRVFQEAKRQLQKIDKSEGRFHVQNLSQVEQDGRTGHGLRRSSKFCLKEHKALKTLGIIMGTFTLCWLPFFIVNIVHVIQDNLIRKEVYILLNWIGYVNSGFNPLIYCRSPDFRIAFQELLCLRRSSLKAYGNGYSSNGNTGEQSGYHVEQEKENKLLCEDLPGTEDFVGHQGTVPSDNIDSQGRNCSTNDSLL
HNF4A DNA FP – change in binding of human HNF4 alpha to DNA; AID 1224865; activity change, % at 10 µM; P41235; 0.3% of 360,000 active; HNF4a-FITC DNA binding, fluorescence polarization, 1 h; in the data active = activity change above about 30%, passing the limit was not always enough;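 also: controls were the assay level and a saturating level of protein; the project sought stronger binding though the title names inhibitors; some compounds called inactive have numbers as strong as hits; positive values seem to mean higher polarization but the record does not say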
E coli growth – E. coli growth inhibition. Escherichia coli growth, OD600, 23 h; hits give low values. 0.21% of 330,000 active. OD600 absorbance (test concentration not listed);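 active = OD600 absorbance below the run mean of sample wells minus 3.6 SD, in any replicate, cut at about 0.56 in these data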;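 also: stock transfer was 300 nL into about 60 µL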
FGF22 binding – shifts melting point of recombinant human FGF22; Q9HCT0; recombinant FGF22 thermal shift, SYPRO orange fluorescence; percent of sucrose octasulfate shift, DMSO zero; calls only at 9.99 µM; 1.5% of 340,000 active;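 active = melting point raised past a set limit in the mean and every replicate; three in four hits are not shown here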
ALR H2O2 inh – human ALR oxidase inhibition via reduced H2O2 | P55789 | purified ALR, DTT oxidation, H2O2 HRP-luminol luminescence | inhibition, % (no concentration beside the values) | 3.8% of 290,000 active | AID 485317;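 active = mean and each replicate at 75% or more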;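 also: stock transfer was 7.5 nL into about 7.5 µL; 0% = neutral wells and 100% = wells with inactivated enzyme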
Target sequence (P55789 whole entry, looked up): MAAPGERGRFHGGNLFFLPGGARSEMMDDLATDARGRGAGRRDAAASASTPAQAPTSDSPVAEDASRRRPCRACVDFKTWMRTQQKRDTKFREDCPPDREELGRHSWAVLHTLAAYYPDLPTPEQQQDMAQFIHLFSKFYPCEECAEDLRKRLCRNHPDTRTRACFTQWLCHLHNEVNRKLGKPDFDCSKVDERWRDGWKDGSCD
UCH37 DUB inh – blocks the human deubiquitinase UCH37; purified proteasome/UCH37, Ub-AMC cleavage fluorescence; inhibition, % (no concentration beside the values); 0.33% of 330,000 active; AID 588478;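 active = mean of two replicates above 20%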;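 also: 0% = compound-free wells with enzyme and 100% = wells lacking proteasome; stock transfer was 100 nL into about 20 µL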
Target sequence (Q9Y5K5 whole entry, looked up): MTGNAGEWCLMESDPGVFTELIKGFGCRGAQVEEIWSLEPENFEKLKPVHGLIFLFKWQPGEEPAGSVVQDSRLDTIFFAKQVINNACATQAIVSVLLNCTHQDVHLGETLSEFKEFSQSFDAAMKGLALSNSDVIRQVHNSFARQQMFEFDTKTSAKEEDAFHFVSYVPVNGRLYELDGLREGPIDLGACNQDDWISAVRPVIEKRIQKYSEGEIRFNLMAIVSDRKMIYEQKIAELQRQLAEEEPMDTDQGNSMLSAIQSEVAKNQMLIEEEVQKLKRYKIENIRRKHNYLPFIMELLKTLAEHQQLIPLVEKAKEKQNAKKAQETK
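Schedule: 30 min plus 25 min, room temperature / Material: human UCH37 within purified proteasomes / Technique: AMC fluorescence intensity at 355/460 nm / Buffer or medium: pH 7.4 Tris-HCl (50 mM) with ovalbumin, ATP-MgCl2, DTT / Controls: wells without proteasome as full block, compound-free enzyme plus substrate as uninhibited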
rRNA inh HTS – inhibits bacterial ribosomal RNA function over humanized ribosomes; GFP signal change (wild-type ribosome), % (test concentration not listed); 1.6% of 350,000 active; E. coli WT GFP vs humanized-ribosome RFP mutants, fluorescence, 24 h; hits give low values; DMSO median 0, no signal -100;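 active = significant combined selectivity score with lowered wild-type GFP, culture density cut under 30%, mutant RFP and density less affected; inactive = any of these conditions unmet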; also: one replicate is shown; some compounds called inactive have numbers as strong as hits
rRNA inh HTS OD600 – second read-out of rRNA inh HTS, no call of its own (marks repeat the call); OD600 change, %; measured here: OD600 growth;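 optical density of the mix in the first replicate; 0 = DMSO median and -100 = no signal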
rRNA inh HTS RFP – recorded beside rRNA inh HTS, whose call it bears; RFP signal change, %; measured here: RFP humanized mutant strains;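 first replicate; 0 = DMSO median and -100 = no signal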
The depositor's hits bear a star; i = inactive; · = not tested or not shown. This is a subset. The share of hits here may be higher or lower than overall.

SMILES	Beta2AR agonist	HNF4A DNA FP	E coli growth	FGF22 binding	ALR H2O2 inh	UCH37 DUB inh	rRNA inh HTS	rRNA inh HTS OD600	rRNA inh HTS RFP
Clc1ccc(N=C2SCC3CCCCN23)cc1 (stereo unspecified)	-1	4.9	0.68	i	0	0.7	-32	-38	-13
Cc1nn(C)cc1S(=O)(=O)N1CCCC(C(=O)O)C1 (stereo unspecified)	0	-3.3	0.69	i	-6	5.1	20	23	2.4
CCN(C(=O)c1c(C)cc(=O)oc1C)c1ccc2c(c1)OCO2	2	1.6	0.7	·	·	1.3	·	·	·
Cn1c(SCC(=O)Nc2ccc3c(c2)n(C)c(=O)n3C)nnc1-c1ccncc1	-2	2.8	0.69	i	-11	6.2	4	1	0.7
C/C(Cl)=C\COc1cc(C)nc2c(Br)cccc12	1	0.8	0.65	i	-4	1.6	-48	-61	-3.0
Cc1ccc2cc(CN(CC(C)C)C(=O)C3CCCO3)c(=O)[nH]c2c1 (stereo unspecified)	11	7.7	0.71	·	-3	-3.8	·	·	·
CCCn1c(SC(C)C(=O)N2CCOCC2)nc2ccc(Br)cc2c1=O (stereo unspecified)	-9	0.1	0.61	i	·	0.9	-13	-29	-2.0
CCCc1cc(C(=O)N/N=C/c2ccc(CC)s2)c2ccccc2n1	1	-0.1	·	·	1	·	·	·	·
O=C(Nc1ccc(F)cc1F)c1cncc(Br)c1	-5	-4.0	0.66	i	-4	5.6	11	9	0.0
O=[N+]([O-])/C=C1\CCCCCN1	-7	-3.7	0.64	i	·	15	3	6	-2.3
CC(C)c1ccc(CNc2cc(N3CCCC3)ccc2[N+](=O)[O-])cc1	-4	1.0	0.71	i	-4	4.5	-3	-5	0.8
Fc1ccc2nc(Nc3nc4c(F)cccc4s3)sc2c1	15	-1.2	0.7	·	3	-59	·	·	·
O=C(/C=C/c1ccccc1Cl)Nc1cccc(S(=O)(=O)NC2=NCCCCC2)c1	-4	0.3	·	·	-5	2.5	·	·	·
O=C1CN(C(=O)COC(=O)CNC(=O)c2ccc(Cl)cc2)c2ccccc2N1	-2	-1.4	0.67	i	-3	0.5	-4	0	-1.2
CCCCn1c(SCC(=O)c2ccc(OC)c(OC)c2)nc2cc(S(N)(=O)=O)ccc21	-10	-3.9	0.7	·	1	1.6	·	·	·
Cc1ccc(NC(=O)c2cc(-c3ccc(C)o3)nc3ccccc23)nc1	2	-11	0.72	·	14	-64	·	·	·
O=Cc1cc(N=Nc2ccccc2Cl)ccc1O	23	-6.4	0.68	i	9	13	7	3	-0.1
COc1cccc(-c2cnc(C(O)c3ccc(F)c(C)c3)[nH]2)c1 (stereo unspecified)	·	-5.9	·	i	·	·	8	-6	2.9
Brc1ccc(-c2nc3ccc(Br)cn3c2Cc2ccccc2)cc1	·	7.2	·	i	·	·	-34	-59	5.9
Cc1ccc(N2CC(NS(=O)(=O)c3cccs3)CC2=O)cc1 (stereo unspecified)	-3	0.2	0.63	i	·	-1.9	4	8	-1.9
COc1ccccc1NC(=O)Nc1ccccc1C(=O)NCCCN1CCOCC1	-2	2.9	0.69	i	4	2.0	18	8	1.5
S=c1[nH]nc(-c2cccnc2)n1/N=C/c1ccc(Br)s1	-4	0.5	·	·	3	·	·	·	·
O=C(Nc1ccc(-c2nc3ncccc3o2)cc1)c1ccco1	20	-0.9	0.66	·	-5	-63	·	·	·
O=C(CCCCCn1c(=S)[nH]c2cc3c(cc2c1=O)OCO3)N1CCN(c2ccccc2)CC1	-3	2.2	0.65	i	-7	3.0	6	16	-0.3
Cc1ccc(S(=O)(=O)N2CCC(C(=O)NCCC3=CCCCC3)CC2)c(C)c1	1	-4.3	0.69	i	-2	3.0	5	7	0.5
COc1cc(NC(=O)CCCc2c[nH]c3ccccc23)cc(OC)c1	6	0.9	0.69	i	-3	4.8	-35	-30	5.1
Cc1ccc(-c2nnc(COC(=O)c3ccco3)o2)cc1	-2	-1.1	0.71	i	-3	1.9	0	-3	-0.2
O=C(c1ccccc1)c1ccc2c(c1)OCCOCCOCCO2	0	0.2	0.62	i	-1	3.1	2	-7	-0.7
COc1ccc(/C(C)=C(\C#N)C(=O)OC(C)C)cc1OC	0	1.5	0.72	·	·	6.4	·	·	·
CCCc1cc(=O)[nH]c(SC(CC)C(=O)Nc2ccccc2C#N)n1 (stereo unspecified)	1	0.7	0.7	·	-6	-1.1	·	·	·
Cc1cc(C)cc(C(=O)NCC(=O)N(C)CCOc2ccccc2)c1	4	0.9	0.65	i	0	0.1	2	-1	0.4
Cc1c(C(=O)Nc2ccccc2F)sc2nc3n(c(=O)c12)CCC3	-18	-0.1	0.69	i	-8	3.3	-7	-14	-3.0
COc1cc(Cn2c(C(=O)O)cc3sccc32)cc(OC)c1OC	-5	-3.9	0.66	·	·	5.6	·	·	·
Cc1ccc(CN2CCN(Cc3cccc(C)n3)CC2CCO)cc1 (stereo unspecified)	-2	0.4	0.71	i	3	-1.7	16	9	3.2
CC(=O)Nc1ccc(S(=O)(=O)NC(CC(=O)NC2CCCCC2C)C(C)C)cc1 (stereo unspecified)	·	·	0.78	·	-3	3.5	·	·	·
c1ccc2[nH]c(Cn3nnc4ccccc43)nc2c1	-9	-4.1	0.62	i	·	1.1	1	3	-11
O=C(c1c(F)cccc1F)N(Cc1ccccn1)C1CCCC1	-2	-2.6	0.67	i	-4	1.8	-6	-11	-1.0
COc1ccc(N2C(=O)CN=C2Nc2nc(C)cc(C)n2)cc1	-9	2.1	0.72	·	-6	1.8	·	·	·
O=C(NCCCn1ccnc1)c1ccc2ccccc2c1	0	-1.3	0.7	i	-19	2.1	5	5	1.1
O=C(Cn1cnc2c(nnn2-c2ccccc2)c1=O)NCCc1ccccc1	-2	-1.5	0.76	i	-15	2.1	-5	5	2.1
COc1ccccc1-c1cc(C(=O)N/N=C\c2cnn(C)c2C)c2ccccc2n1	-4	3.9	·	i	-2	·	5	5	-5.3
Cc1ccc(N(CC(=O)Nc2c(C)n(C)n(-c3ccccc3)c2=O)S(C)(=O)=O)c(C)c1	6	0.1	0.64	i	-9	-0.8	14	11	-0.1
CCOC(=O)C1CCN(C(=O)Cn2cc3c(n2)CCC(C)C3)CC1 (stereo unspecified)	2	3.0	0.73	i	1	2.5	2	3	0.9
Cc1ccc(OCC(=O)N2CCC(N3CC(C)CC(C)C3)CC2)cc1 (stereo unspecified)	6	1.8	0.73	i	-2	1.1	10	9	3.8
Nc1c(Cl)cnn(-c2ccccc2)c1=O	-5	6.4	0.59	i	-7	0.6	26	7	4.3
Cc1ccc2c(c1)S/C(=C\c1cccc[n+]1C)N2CCO	-72	6.0	0.65	i	39	8.9	12	8	0.2
CCOC(=O)N1CCN(C2=C(NS(=O)(=O)c3ccc(C)cc3)C(=O)c3ccccc3C2=O)CC1	-12	-2.0	0.69	i	-7	42*	-2	-29	3.5
CNC(=S)NNC(=O)c1cccc(C(F)(F)F)c1	4	0.9	0.65	i	27	1.8	6	8	-3.1
CCOc1ccc2nc(SCC(=O)NCc3ccco3)sc2c1	-9	9.7	0.69	·	-31	1.5	·	·	·
COc1ccc(N2CCN(C(=O)COC(=O)c3cnccn3)CC2)cc1	3	0.3	0.69	i	·	3.8	13	12	1.4
O=C(Cc1cccc([N+](=O)[O-])c1)Nc1ccc(C(=O)N2CCOCC2)cc1	-7	4.4	0.67	i	2	29*	2	6	-9.9
COc1ccc(CCNC(=O)c2cc(-c3ccccc3O)n[nH]2)cc1OC	2	-2.4	0.72	·	11	4.7	·	·	·
O=C(c1ccc(CS(=O)Cc2cccc(Cl)c2)o1)N1CCN(C2CCCCC2)CC1 (stereo unspecified)	0	6.6	0.69	i	15	2.6	4	-36	47
O=C(c1ccc(F)cc1)N1CCN(C2=NS(=O)(=O)c3ccccc32)CC1	9	3.4	0.65	i	-1	3.6	11	9	0.2
Cc1cc(=O)n2[nH]c(C)c(-c3ccccc3)c2n1	-2	2.9	0.69	·	10	-0.4	·	·	·
O=C(Nc1nnc(-c2ccccn2)o1)c1cccc(Cl)c1	5	-1.1	0.57	i	·	3.8	-54*	-26*	-17*
O=S(=O)(NCc1ccccc1)c1ccc(-c2cnc(C3CC3)o2)cc1	-7	3.4	0.72	i	-1	5.8	1	0	-0.8
O=C(COC(=O)/C=C/c1cccc(Br)c1)NCCC1=CCCCC1	2	-3.0	0.66	·	-2	3.4	·	·	·
Cc1cnc(C(=O)OCC(=O)NC2CCCCCCC2)cn1	7	0.5	0.72	·	-1	3.2	13	11	-0.9
CC1CCN(CCCNC(=O)CN2CCN(Cc3ccc(Cl)cc3)C2=O)CC1	3	0.6	0.7	i	·	8.7	10	16	2.6
(more compounds)
SMILES	Beta2AR agonist	HNF4A DNA FP	E coli growth	FGF22 binding	ALR H2O2 inh	UCH37 DUB inh	rRNA inh HTS	rRNA inh HTS OD600	rRNA inh HTS RFP
O=C(N/N=C/c1cccnc1)c1ccc(NC(=O)c2cccc(Cl)c2)cc1	3	108*	·	·	-2	·	-4	8	-0.7
CC(C)c1ccc(NC(=O)Cn2cccc2C2=NC(c3ccccc3)CO2)cc1 (stereo unspecified)	-5	-0.1	·	·	0	2.2	·	·	·
COc1cc(OC)cc(C(=O)NC2CCN(CC(=O)Nc3cccc4ccccc34)CC2)c1	-11	-1.0	0.68	·	-16	0.4	·	·	·
CC1CCC(NC(=O)COC(=O)c2ccco2)CC1 (stereo unspecified)	3	0.9	0.72	i	-14	3.3	·	·	·
O=C1CN(C(=O)NCC(=O)N[C@H](C(=O)O)c2ccccc2)c2ccccc2N1	-5	16	0.63	i	-1	0.4	5	2	-0.9
CSc1c(SCc2ccccc2)cnn(-c2ccccc2)c1=O	2	-0.9	0.71	·	-3	8.6	·	·	·
O=C(NCCn1cccn1)C1CCC(=O)N(CC2CCCCC2)C1 (stereo unspecified)	4	-2.5	0.69	i	-2	-1.6	17	16	-1.7
CCOC(=O)C1CCN(C(=O)c2ccccc2NC(=O)C2=C(C)OCCS2)CC1	1	3.5	0.68	i	5	1.2	-24	-32	-8.1
CCSCCOC(=O)C1=C(C)N(C)C(=O)NC1c1ccc2c(c1)OCO2 (stereo unspecified)	-10	-1.8	0.66	i	16	1.1	-3	-2	5.1
O=C(Cc1c(C(=O)O)[nH]c2ccccc12)Nc1ccc2c(c1)OCO2	-3	-5.7	0.67	·	-16	1.5	·	·	·
CN1CCN(S(=O)(=O)c2ccc(NC(=O)c3cccc(S(=O)(=O)N4CCCC4)c3)cc2)CC1	3	0.0	0.7	·	-8	3.7	·	·	·
CNc1cc(-c2ccc(O)cc2C)ncn1	·	-0.7	·	i	·	·	7	13	-1.7
